Screens (PubChem BioAssay)
TRPV1 PAM – human TRPV1 potentiation; Q8NER1; potentiation, % at 8.33 µM; TRPV1-expressing cells, Fluo-8 calcium influx, capsaicin EC20 potentiation; host cell line not named in the record; control for the full effect not named in the record; 320,000 compounds, 0.02% hits; AID 540277; active means potentiation above 80%; inconclusive means 30% to 80%; inactive means below 30%; further: 0% is about no effect
Target sequence (Q8NER1 whole entry, looked up): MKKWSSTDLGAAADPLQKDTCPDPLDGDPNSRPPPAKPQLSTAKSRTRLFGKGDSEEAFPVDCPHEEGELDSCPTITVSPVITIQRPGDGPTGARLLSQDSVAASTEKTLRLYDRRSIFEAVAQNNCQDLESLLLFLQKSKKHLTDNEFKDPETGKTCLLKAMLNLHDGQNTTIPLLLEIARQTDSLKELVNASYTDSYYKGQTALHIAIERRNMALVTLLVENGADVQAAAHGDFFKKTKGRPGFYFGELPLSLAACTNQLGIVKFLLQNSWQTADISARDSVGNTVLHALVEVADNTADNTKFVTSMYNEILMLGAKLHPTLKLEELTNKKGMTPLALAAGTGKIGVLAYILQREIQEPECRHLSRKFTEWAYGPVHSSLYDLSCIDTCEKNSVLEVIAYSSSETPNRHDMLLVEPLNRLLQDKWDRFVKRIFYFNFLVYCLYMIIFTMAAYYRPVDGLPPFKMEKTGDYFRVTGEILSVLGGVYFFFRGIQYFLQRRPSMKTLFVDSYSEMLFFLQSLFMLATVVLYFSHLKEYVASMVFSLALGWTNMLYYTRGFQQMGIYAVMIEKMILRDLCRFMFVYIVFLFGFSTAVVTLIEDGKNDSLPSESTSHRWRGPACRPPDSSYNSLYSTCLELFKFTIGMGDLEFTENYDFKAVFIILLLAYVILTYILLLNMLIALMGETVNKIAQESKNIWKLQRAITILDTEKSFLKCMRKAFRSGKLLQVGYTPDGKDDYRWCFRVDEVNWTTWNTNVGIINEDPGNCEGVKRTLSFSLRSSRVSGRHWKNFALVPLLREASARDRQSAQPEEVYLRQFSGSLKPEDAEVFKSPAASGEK
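TRPV1-expressing cells were cultured overnight at 35.5C and loaded with Fluo-8 calcium dye for 40 to 90 min at room temperature. After a 10 s baseline, compound was added and calcium influx was read kinetically for 3 min (ex 480/em 520 nm).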
Sfp PPTase inh – inhibitors of Bacillus subtilis Sfp phosphopantetheinyl transferase; Q9F4F7; Potency, µM, without a hit: max response, negative = inhibition, hits mostly inhibitors; 310,000 compounds, 3.5% hits; Biochemical Sfp PPTase activity, qHTS; active means well fitted inhibition curve with a large enough effect; inconclusive means small, poorly fitted or top-dose-only effect, or another doubt; inactive means no such curve, though single readings can be large or run the other way;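 further: the enzyme is Sfp with the accession as filed and its product quenches rhodamine fluorescence; potency means the concentration at half of the fitted maximal effect; 0% = enzyme reaction without inhibitor and -100% = no enzyme wells; top concentration of the series not given in the record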
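Buffer: 50 mM Hepes-Na pH 7.6, 10 mM MgCl2, 0.01% Nonidet P-40, 0.01% BSA. Enzyme 15 nM, pre-exposed to compound 15 min; substrates then added and fluorescence change tracked over 30 min.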
gsp ag – agonists of gsp mutant (McCune-Albright syndrome); 340,000 compounds, 0.13% hits; gsp mutant cells, cAMP HTRF, 30 min; control for the full effect not named in the record; Potency, µM (titrated, usually from 76.9 µM), for the others: at the highest dose activation (cAMP increase), usual class: activators; AID 624287; active = well fitted activation curve with a large enough effect; inconclusive = small, poorly fitted or top-dose-only effect, or another doubt; inactive = no such curve, though single readings can be large or run the other way; cell line not stated here;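 further: phosphodiesterase inhibitor Ro 20-1724 added with compounds to block cAMP breakdown; potency means the concentration at half of the fitted maximal effect; nearly all actives have a fitted effect of over 60% in size; about a fifth of the inactives were tested at one dose only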
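Cells in DMEM/10% FBS with G418 were pretreated with compounds in DMSO plus […] (300 uM stock) for 30 min at 37C. cAMP was measured by HTRF (cAMP-d2 plus anti-cAMP antibody-K) after 30 min at room temperature.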
ClpP mod – qHTS Assay for Activators of ClpP; purified B. subtilis ClpP, FRET peptide cleavage, 20 min; Potency, µM (top dose mostly 57.5 µM), without a hit: at the highest dose activity change, negative = active; 340,000 compounds, 1.9% hits; AID 651965, 2013; active = well fitted falling curve with a large enough effect; inconclusive = small, poorly fitted or top-dose-only effect; inactive = no such curve, though single readings can be large or run the other way; further: potency means the concentration at half of the fitted maximal effect; the source files actives as falling curves though it sought activators and does not explain the sign; nearly all actives have a fitted effect of over 65% in size; many hits overshoot -100%
Target sequence (P80244 whole entry, looked up): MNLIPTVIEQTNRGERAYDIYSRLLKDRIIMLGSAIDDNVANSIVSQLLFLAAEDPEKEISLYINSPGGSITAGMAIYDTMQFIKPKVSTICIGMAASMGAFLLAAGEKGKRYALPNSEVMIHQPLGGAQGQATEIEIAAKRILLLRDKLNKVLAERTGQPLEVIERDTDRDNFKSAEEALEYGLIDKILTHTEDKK
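Buffer: 100 mM Tris/HCl pH8, 100 mM KCl, 0.05% low protease BSA, 2.5% glycerol, 0.01% Tween-20. ClpP 10 microg/mL final; 20 min RT; delta FRET normalized to ADEP and DMSO controls.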
Menin MLL FP FL – inhibitors of human menin-MLL interaction, wild-type MLL peptide; Fluorescence polarization, fluorescein-MLL peptide displacement from menin; FP activity change, % at 61.4 µM; 290,000 tested, under 10 active; AID 1766; inconclusive = falling polarisation curve, or a change in total fluorescence; inactive = total fluorescence flat and polarisation flat or rising; no compound was filed as active; the % refers to the polarisation; negative = inhibition;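 further: % of control where 0% means no effect; inhibitors lower the polarisation; unlabelled MLL peptide was the positive control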
gsp antagonist – antagonizes gsp, the McCune-Albright syndrome mutation | gsp-mutant cells, cAMP HTRF, 30 min; control for the full effect not named in the record | Potency, µM (doses to about 76.9 µM), for inactives: at the highest dose activity change, negative = inhibition, usual class: inhibitors | 340,000 compounds, 0.4% hits | AID 624288; active = falling curve of any shape with a large fitted effect; inconclusive = falling curve, mostly with a smaller effect; inactive = flat or rising curve; cell line not stated here;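 further: intracellular cAMP measured with PDE inhibitor Ro 20-1724 present during compound exposure; potency means the concentration at half of the fitted maximal effect; on the % scale 0 is the no-effect control and ±100 the full control effect; nearly all actives have a fitted effect of over 65% in size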
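HTRF cAMP read-out (cAMP-d2 plus anti-cAMP antibody-K in lysis buffer, 30 min RT). Before lysis, cells are exposed to compounds with […] for 30 min at 37C in DPBS containing Ca/Mg, BSA and Tween 20.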
CtBP-E1A blk – blocks the CtBP interaction with E1A; AlphaScreen GST-E1A/His-CtBP binding, 1536-well; hits give low values; control for the full effect not named in the record; activity change, % (test concentration not listed); 340,000 compounds, 0.49% hits; in the data active means activity change below about -65%; inconclusive means about -30% to -65%; inactive means above about -30%; further: on the % scale 0 is the no-effect control and ±100 the full control effect
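Protein mix (5X: 125 nM each GST-E1A, His-CtBP) was incubated with pinned compound 2 h at 37 deg C in dark, in 50 mM Tris pH 8.0 buffer with 300 mM NaCl. Glutathione donor and nickel acceptor beads followed; AlphaScreen signal read after 1 h.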
Numbers without * were called inactive; ? = inconclusive; . = not tested or not shown; [ ] = dose if it differs, or a comment. An unsorted share of the library; overall some 5.3% were active at least once.

The opening 2 records, to show the layout:
SMILES	TRPV1 PAM	Sfp PPTase inh	gsp ag	ClpP mod	Menin MLL FP FL	gsp antagonist	CtBP-E1A blk
Cc1ccc(C(=O)/C=C/Nc2ccc(S(=O)(=O)Nc3onc(C)c3C)cc2)cc1	6	-15%	0%	-1.1%	.	-29%	-23
Cc1cc(C)c2c(Cn3ccnc3)cc(=O)oc2c1	11	7%	-23%	-8.2%	1.4	-8%	.

All compounds of this part, from the first entry:
SMILES	TRPV1 PAM	Sfp PPTase inh	gsp ag	ClpP mod	Menin MLL FP FL	gsp antagonist	CtBP-E1A blk
Cc1ccc(C(=O)/C=C/Nc2ccc(S(=O)(=O)Nc3onc(C)c3C)cc2)cc1	6	-15%	0%	-1.1%	.	-29%	-23
Cc1cc(C)c2c(Cn3ccnc3)cc(=O)oc2c1	11	7%	-23%	-8.2%	1.4	-8%	.
COc1cc(C2SCC(=O)N2c2c(C)n(C)n(-c3ccccc3)c2=O)ccc1O (centres undefined)	5	-6%	4%[15.4 µM]	.	4.1	3%	2
CC(NC(=O)CN1C(=O)NC2(CCCCCC2)C1=O)c1ccccc1 (centres undefined)	3	.	5%	2.2%	.	17%	7
Cc1cccc(OCCSc2nnc(-c3ccoc3C)n2C)c1	3	-1%	23%	-1.1%	5.1	-22%	5
O=C(CCn1cccc1)Nc1ccccc1F	0	21%	0%	-1.2%	-2.9	6%	-1
COC(=O)Nc1sc(C(=O)N(C)C)c(C)c1C(=O)OC	-8	6%	-27%	-3.1%	1.8	-3%	6
Cc1cccc(C)c1NC(=O)CSc1nnc(CCCCCNC(=O)OC(C)(C)C)o1	-11	2%	?	-2.1%	0.9	?	-3
Cc1ccccc1-c1ccc(Nc2ccc(C(=O)N3CCOCC3)cc2)nn1	1	8%	-44%[inhibitor]	0.0%	0.0	-13%	-8
CCOc1cc([C@H]2[C@@H]3CCCC[C@]3(O)CCN2CC(=O)NCc2ccco2)ccc1O	-9	0%	?	-1.3%	4.7	8%	0
CNC(=O)c1nc(C)c(C2(C)CC(c3ccccc3)=NO2)s1 (centres undefined)	-14	17%	.	1.5%	-2.2	0%	4
COc1ccccc1C(O)P(=O)(OC1CCCCC1)OC1CCCCC1 (centres undefined)	-26	6%	1%[15.4 µM]	0.2%	-2.4	14%	6
O=C1ON=C(c2ccccc2)/C1=C/c1ccc(O)c(O)c1	23	50µM*	-27%	-2.6%	?	?	.
COc1ccccc1C(=O)Nc1cc2c(ccc3ccccc32)oc1=O	-6	10%	.	.	-0.7	.	.
COc1cccc(NC(=O)COc2ccc(C(=O)N3CCN(C)CC3)cc2)c1	?	12%	-1%[15.4 µM]	-0.2%	3.4	-2%	6
CC(=O)N(C)c1ccc(NC(=S)Nc2ccc(C(C)C)cc2)cc1	11	-11%	18%	-1.1%	0.8	4%	.
CC(C)CCn1cnc2c1c(=O)n(C)c(=O)n2C	-2	-4%	5%	1.2%	3.9	9%	3
CCOc1ccc(C(=O)NCc2ccco2)cc1OC	-11	10%	-6%	1.0%	-5.4	11%	5
CC(C)OC(=O)/C(=C/c1cccnc1)NC(=O)c1ccccc1	-5	20%	-13%[15.4 µM]	-0.9%	2.8	10%	0
COc1c(OC)c(O)c2c(=O)cc(-c3c(O)cccc3O)oc2c1OC	?	20µM*	-26%	1.2%	-0.7	-3%	3
CNc1sc(C(=O)c2ccccc2F)c(N)c1-c1nc2ccccc2s1	-11	-30%	24%	1.3%	4.6	-19%	-24
COC(=O)c1ccc(C(=O)N2CCCC(CNC(=O)c3ccccc3Cl)C2)cc1 (centres undefined)	-26	12%	-6%[15.4 µM]	.	-3.0	1%	7
CC(C)CCNC(=O)CN(Cc1ccccc1)C(=O)CCC(=O)Nc1nccs1	1	14%	-19%	.	-0.1	1%	-1
O=C(NNc1cc(C(F)(F)F)ccc1Cl)c1ccc(=O)[nH]c1	1	56µM*	-34%[inhibitor]	.	-2.7	11%	22
Cc1ccc(N2C(SCC(=O)O)=NC(=Nc3cccc(C)c3)C23CCCC3)cc1	-2	?	28%[15.4 µM]	.	0.1	12%	0

Record cards, from the list above. Screens in order: TRPV1 PAM	Sfp PPTase inh	gsp ag	ClpP mod	Menin MLL FP FL	gsp antagonist	CtBP-E1A blk
Entry for COc1cccc(NC(=O)COc2ccc(C(=O)N3CCN(C)CC3)cc2)c1 : ?	12%	-1%[15.4 µM]	-0.2%	3.4	-2%	6
Entry for COC(=O)c1ccc(C(=O)N2CCCC(CNC(=O)c3ccccc3Cl)C2)cc1 (centres undefined) : -26	12%	-6%[15.4 µM]	.	-3.0	1%	7
Entry for COc1ccccc1C(=O)Nc1cc2c(ccc3ccccc32)oc1=O : -6	10%	.	.	-0.7	.	.
Entry for Cc1cccc(C)c1NC(=O)CSc1nnc(CCCCCNC(=O)OC(C)(C)C)o1 : -11	2%	?	-2.1%	0.9	?	-3
Entry for CC(NC(=O)CN1C(=O)NC2(CCCCCC2)C1=O)c1ccccc1 (centres undefined) : 3	.	5%	2.2%	.	17%	7

Carrying on.
SMILES	TRPV1 PAM	Sfp PPTase inh	gsp ag	ClpP mod	Menin MLL FP FL	gsp antagonist	CtBP-E1A blk
CCOC(=O)Cn1cc(C#N)c2cccc(CC)c21	1	13%	-57%[inhibitor]	-12%	-2.6	-2%	10
CCOc1ccc(-c2nc(CN3CCCC(C(=O)N4CCOCC4)C3)c(C)o2)cc1 (centres undefined)	-19	9%	52%	-13%	-0.9	10%	-6
CC(O)CN1C(=O)C(CC(=O)Nc2ccc(Cl)cc2)SC1=Nc1ccccc1 (centres undefined)	0	-1%	28%	81%	1.4	-14%	0
O=C(Nc1ccccc1)Nc1scc2c1c(=O)oc1ccccc12	12	9%	-108%[inhibitor]	-7.4%	0.2	7%	7
O=C(O)CSc1ccnc2cc(Cl)ccc12	-12	56µM*	20%[15.4 µM]	.	2.7	21%	8
CCN(CC)C(=O)CSc1nc(C)cc(C)c1C#N	9	-41%	-31%[inhibitor]	.	-4.5	1%	0
C#CCOCCOCCOCCNc1nc(N2CCN(C(=O)[C@H](CCCN=C(N)N)n3cc(C(N)[C@@H](C)CC)nn3)CC2)nc(N2CCN(C(=O)[C@H](CCC(=O)O)n3cc([C@@H](N)[C@H](C)CC)nn3)CC2)n1 (some centres undefined)	.	.	.	2.0%	.	9%	-2
C=CCOc1cccc(CNc2ccc3[nH]c(=O)[nH]c3c2)c1	-9	-14%	-2%[15.4 µM]	-0.2%	-3.8	-3%	11
O=C(Nc1ccc2ccccc2c1)c1cccc2ccccc12	.	.	?	.	.	1%	8
Cc1ccc(NC(=S)N(CCN(C)C)C(C)c2ccco2)c(C)c1 (centres undefined)	-11	11%	4%	0.4%	8.0	-1%	.
CS(=O)(=O)N(CC(=O)N1CCCC1)Cc1ccc(Cl)cc1	0	-57%	3%	-7.6%	6.4	11%	0
CCC(=O)N1CCc2cc(S(=O)(=O)CCC(=O)Nc3nc(C)cs3)ccc21	3	12%	-15%	-1.6%	1.9	10%	-2
CCOC(=O)c1cc(-c2ccccc2)sc1NC(=O)C(C)OC(=O)c1cccc(S(=O)(=O)N(C)C)c1 (centres undefined)	2	8%	-3%[15.4 µM]	-19%	1.0	4%	18
CCN(CC)S(=O)(=O)c1ccc2[nH]c(=O)cc(C(=O)N(C)C3CCS(=O)(=O)C3)c2c1 (centres undefined)	0	.	-8%	-11%	.	7%	.
CS(=O)(=O)c1ccc(Cl)c(S(=O)(=O)NCc2ccccc2)c1	-3	14%	-30%	-3.5%	0.3	2%	-7
CN(CC(=O)Nc1ccccc1Cl)C(=O)COC(=O)Cc1c(F)cccc1Cl	-3	-12%	10%	2.8%	.	7%	2
CCn1nc(NC(=O)c2ccco2)c2cc3ccccc3nc21	5	-6%	15%	?	6.0	4%	0
O=C(O)c1cccnc1C(=O)c1ccccc1	.	.	-1%[15.4 µM]	.	.	-1%	3
O=C(O)CCN1CCOCC1	21	13%	-2%	?	1.1	9%	13
CC(=O)c1ccc(OC(C)C(=O)OCC(=O)NCCc2ccccc2)cc1 (centres undefined)	3	.	-2%	-1.0%	.	-21%	-3
CC1CC(C)C(=O)C(C(CC2CC(=O)NC(=O)C2)OC(=O)CC(=O)c2ccccc2)C1 (centres undefined)	.	.	15%	.	.	-14%	1
CCCCC(=O)Nc1ccc2c(c1)nc(CCNC(=O)c1ccco1)n2C	-1	4%	6%	-0.9%	.	6%	3
Oc1ccc(/C=N/Nc2nc(N3CCCC3)nc(N3CCCC3)n2)cc1O	-11	20µM*	-4%[15.4 µM]	.	4.4	.	11
Cc1cc(C(=O)Nc2c[nH]c(=O)[nH]c2=O)ccc1[N+](=O)[O-]	-20	0%	15%[15.4 µM]	.	3.4	2%	10
COc1ccc(/C=C/C(=O)OCC(=O)N(C)c2c(N)n(Cc3ccccc3)c(=O)[nH]c2=O)cc1OC	17	.	4%	?	.	2%	-2

Next section.
SMILES	TRPV1 PAM	Sfp PPTase inh	gsp ag	ClpP mod	Menin MLL FP FL	gsp antagonist	CtBP-E1A blk
O=C(NCCCN1CCCC1)c1ccc(CS(=O)(=O)c2ccc(Br)cc2)o1	-3	-10%	-1%	-0.8%	2.7	1%	-1
Cc1c(NC(=O)C(C)c2ccc(CC(C)C)cc2)c(=O)n(-c2ccccc2)n1C (centres undefined)	-1	23%	-12%	1.3%	0.1	1%	0
NS(=O)(=O)c1cccc(NC(=O)c2ccc(NS(=O)(=O)c3cccc([N+](=O)[O-])c3)cc2)c1	.	.	-2%[15.4 µM]	-0.2%	.	4%	-9
COc1ccc(NC(=O)N(C)C[C@H]2Oc3c(NC(=O)C4CCCCC4)cccc3C(=O)N([C@H](C)CO)C[C@@H]2C)cc1	.	.	.	0.2%	.	2%	2
CCC1(C)Cc2ccccc2C(Nc2c(C)n(C)n(-c3ccccc3)c2=O)=N1 (centres undefined)	4	-3%	0%	14µM*	3.8	11%	8
COc1cc2c(c(O)c1OC)-c1c(cc(OC)c(OC)c1O)[C@@H](OC(=O)c1ccccc1)[C@@](C)(O)[C@@H](C)[C@@H]2OC(C)=O	-24	8%	.	.	-1.9	.	.
O=C1OC(c2cccs2)=N/C1=C/c1ccc(-c2cccc(C(=O)O)c2)o1	-2	-61%	-42%[inhibitor]	-2.7%	?	1%	-3
